# High-throughput results deposited in PubChem BioAssay by National Center for Advancing Translational Sciences (NCATS).
# Cruzain Triton: cruzain (T. cruzi) inhibition with detergent | P25779 | Potency, µM, without a hit: max response, negative = inhibition, usual class: inhibitors | 0.43% of 200,000 active | purified cruzain, Z-FR-AMC fluorescence, 0.01% Triton; active = well fitted curve in the direction sought with a large enough effect; inconclusive = small, poorly fitted or top-dose-only effect, or another doubt; inactive = no such curve, though single readings can be large; an effect the other way counts as inactive or inconclusive;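 also: plate controls were neutral wells for no effect and buffer without enzyme for full effect; nearly all actives have a fitted effect of over 40% in size; top concentration of the series not given in the record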
# Target sequence (P25779 123-467 limits assumed): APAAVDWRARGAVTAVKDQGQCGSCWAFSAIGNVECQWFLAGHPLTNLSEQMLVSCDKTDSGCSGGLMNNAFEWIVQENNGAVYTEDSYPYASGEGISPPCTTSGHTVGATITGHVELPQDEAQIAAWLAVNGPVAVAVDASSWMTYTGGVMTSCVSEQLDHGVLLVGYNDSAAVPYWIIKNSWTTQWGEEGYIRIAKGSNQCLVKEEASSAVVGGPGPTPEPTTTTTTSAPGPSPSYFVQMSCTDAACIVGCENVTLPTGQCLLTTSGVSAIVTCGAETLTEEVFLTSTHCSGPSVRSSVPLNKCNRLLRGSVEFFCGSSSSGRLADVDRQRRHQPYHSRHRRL
#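 Purified cruzain (1.5 nM final) was preincubated with compounds for 15 min at room temperature in 100 mM sodium acetate pH 5.5, 5 mM DTT, 0.01% Triton X-100. Reaction started with 2 uM Z-FR-AMC; AMC fluorescence change over 60 s gave activity.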
# Cruzain inh noDet: inhibitors of Trypanosoma cruzi cruzain without detergent; 2.3% of 200,000 active; P25779; purified cruzain, Z-FR-AMC fluorescence, no detergent; Potency, µM, for the others: max response, negative = inhibition, hits mostly inhibitors; AID 1476; active = well fitted curve in the direction sought with a large enough effect; inconclusive = small, poorly fitted or top-dose-only effect, or another doubt; inactive = no such curve, though single readings can be large; an effect the other way counts as inactive or inconclusive;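 also: plate controls were enzyme without inhibitor for no effect and buffer without enzyme for full effect; nearly all actives have a fitted effect of over 40% in size; top concentration of the series not given in the record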
#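 Detergent-free condition (0.00005% Triton X-100) in acetate buffer pH 5.5 with DTT. 1.5 nM enzyme and compound were pre-mixed 15 min, then 2 uM Z-FR-AMC substrate added; reaction progress from fluorescence change between first and third reads (60 s).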
# Lassa entry inh: Lassa virus entry inhibition | Potency, µM (top dose mostly 37.9 µM), inactives show top-dose activity change, negative = inhibition, hits mostly inhibitors | Lassa virus pseudotype entry inhibition, cell reporter; control for the full effect not named in the record | 1.2% of 300,000 active | AID 540256; active means well fitted inhibition curve with a large enough effect; inconclusive means small, poorly fitted or top-dose-only effect, or effect the other way; inactive means flat fitted curve, though single readings scatter; tested in HEK293 cells; also: % is scaled to controls: 0 for no effect and ±100 for the full control effect; nearly all actives have a fitted effect of over 50% in size; luciferase read-out
# SARS PLP yeast: SARS-CoV PLP inhibition in yeast; AID 485353; 0.19% of 330,000 active; Potency, µM (titrated, usually from 32.9 µM), for the others: top-dose activity, positive = growth rescue; S. cerevisiae expressing SARS-CoV PLpro, growth rescue; control for the full effect not named in the record; also: 0% is about no effect; nearly all actives have a fitted effect of over 55% in size; growth read by luminescence after 48 h
# Marburg entry inh: blocks Marburg virus binding to or entry into cells | Marburg virus pseudotyped entry inhibition, cell reporter; control for the full effect not named in the record; about a third of the inactives were read at about 46 µM | Potency, µM (top dose mostly 37.8 µM), for the others: top-dose activity change, negative = inhibition, usual class: inhibitors | 1.8% of 300,000 active | AID 540276; active = well fitted inhibition curve with a large enough effect; inconclusive = small, poorly fitted or top-dose-only effect, or effect the other way; inactive = flat fitted curve, though single readings scatter; tested in HEK293 cells; about a fifth of its hits are not listed in these tables; also: % is scaled to controls: 0 for no effect and ±100 for the full control effect; luciferase read-out
# NS1 function inh: influenza NS1 inhibition | S. cerevisiae slowed by influenza A NS1, growth recovery by OD600 | Potency, µM (titrated, usually from 46.1 µM), without a hit: top-dose activity, positive = more growth | 0.4% of 270,000 active | AID 2326; also: actives are rising curves; nearly all actives have a fitted effect of over 50% in size
#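 In this qHTS, NS1 from influenza A is expressed in budding yeast, where it slows growth. Cells are switched from glucose to 2% galactose medium (pH 6.0, -URA), treated with compound, and growth recovery is read at OD600.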
# StopGo reporter: FMDV 2A StopGo reporter, luciferase signal; human cells with a luciferase reporter of 2A StopGo recoding; control for the full effect not named in the record; Potency, µM (titrated, usually from 57.9 µM), without a hit: top-dose signal change, negative = less light; 1.2% of 410,000 active; AID 1159524; active = well fitted falling curve with a large enough effect; inconclusive = small, poorly fitted or top-dose-only effect; inactive = no such curve, though single readings can be large or run the other way; tested in HEK293T cells; also: % is scaled to controls: 0 for no effect and ±100 for the full control effect; nearly all actives have a fitted effect of over 45% in size; luciferase light after 4 h
# RE007 growth inh: less growth of the S. pombe RE007 Vpr strain; S. pombe RE007 Vpr strain, BacTiter-Glo ATP luminescence, 24 h; control for the full effect not named in the record; Potency, µM (doses to about 92.2 µM), for the others: at the highest dose activity change, negative = less growth; 0.21% of 360,000 active; AID 651644; active = well fitted falling curve with a large enough effect; inconclusive = small, poorly fitted or top-dose-only effect; inactive = no such curve, though single readings can be large or run the other way;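 also: % is scaled to controls: 0 for no effect and ±100 for the full control effect; nearly all actives have a fitted effect of over 50% in size; the assay follows cell death caused by Vpr and the record does not say whether a fall means rescue or toxicity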
#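 Fission yeast strain RE007, carrying one chromosomally integrated HIV-1 vpr copy, was seeded at OD 0.01 in PMG+AL medium with 23 nL pinned compound. After 24 h at 30 °C and 99% humidity, viability was read by BacTiter-Glo luminescence.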
# * marks the source's active call; other numbers are inactive results; ? = inconclusive; · = not tested or not shown; & = joins results of further samples; [ ] = another dose, or the depositor's remark. Unless noted, calls follow the shape of the dose curve; as a rule, active means well fitted rising curve with a large enough effect; inconclusive means small, poorly fitted or top-dose-only effect; inactive means no such curve, though single readings can be large or run the other way. Potency is read from the fitted curve at half-maximal effect.
canonical_smiles | Cruzain Triton | Cruzain inh noDet | Lassa entry inh | SARS PLP yeast | Marburg entry inh | NS1 function inh | StopGo reporter | RE007 growth inh
COc1ccc(CCNC(=S)NC(=O)c2cccc([N+](=O)[O-])c2)cc1OC | · | · | 13% | -1% | 1% | -6% | -30% | 14%
O=C(CN(C(=O)CCC(=O)Nc1ccccn1)c1ccc2c(c1)OCCO2)NCCc1ccccc1 | 3.3% | -14% | ? | 0% | 4%&9% | -1% | -1% | 17%
Cc1ccc(OCCCC(=O)Nc2nc3ccccc3[nH]2)cc1 | · | · | · | 0% | -7%[46.1 µM] | · | 9% | 3%
Cc1onc(-c2ccccc2Cl)c1C(=O)Nc1ccc2c(c1)OCO2 | -2.0% | -1% | ? | 2% | 10% | 2% | -7% | -11%
COc1ccc(C2NC(=O)N(C)C3=C2C(=O)N(c2ccc(F)cc2)C3)cc1 (stereo not given) | -1.9% | -6% | ? | · | · | · | -13% | ·
Cc1cc(NC(=O)Nc2cccc(C)c2C)no1 | · | · | -19%[46.1 µM] | -1% | -2%[46.1 µM] | · | -2% | -10%
Nc1ccc(-c2nc3ncccc3o2)c(Cl)c1 | · | · | ? | -5% | -25%[46.1 µM] | -6% | 16% | 8%
Cc1ccc2sc(N3CCN(C(=O)C4=COCCO4)CC3)nc2c1C | · | · | 24% | -6% | 0% | · | -27% | -13%
O=C(NC(=S)Nc1cccc([N+](=O)[O-])c1)C1CCCC1 | · | · | -13%[46.1 µM] | 3% | 18%[46.1 µM] | -17% | 4% | -28%
COc1cccc(N=Cc2c(O)c3ccccc3oc2=O)c1 | · | · | -22%[46.1 µM] | 0% | 4%[46.1 µM] | 14% | -8% | -17%
COCCNC(=O)c1cc2c(-c3ccc(Cl)cc3)nn(C)c2s1 | -20% | ? | · | -8% | · | -8% | -16% | 0%
O=C(Cc1c[nH]c2ccccc12)NC1(C(=O)NC2CCCCC2)CCCCC1 | -0.1% | -2% | -4% | 8% | ? | -8% | 7% | -1%
COc1cc(-c2nnc(SCC(=O)Nc3cccc(C#N)c3)o2)cc(OC)c1OC | -4.5% | ? | -9%[46.1 µM] | · | ? | · | -19% | ·
CSc1ccc(CCNC(=O)C2CCCN(c3nn4c(=O)cc(C)nc4s3)C2)cc1 (stereo not given) | · | · | · | 6% | · | -5% | 5% | 16%
O=C(CN1C(=O)NC2(CCCC2)C1=O)N1CCCSC1=Nc1ccccc1 | · | · | -19% | 3% | -20% | · | -16% | -3%
Cc1noc(C)c1COc1ccc(C(=O)NCC2CCCO2)cc1 (stereo not given) | 1.5% | 14% | -21% | 0% | 9%[46.1 µM] | 7% | -1% | -12%
Clc1ccc(Nc2ncn[nH]2)c(Cl)c1 | · | · | 8% | -3% | -16%[46.1 µM] | 3% | 15% | 10%
CCOC(=O)c1c(C)c(C(=O)Nc2ccc3c(c2)OCO3)c(C)n1C | 2.4% | 11% | 27%[14.3 µM] | -2% | 9% | -2% | 31%[activator] | -5%
COc1ccc(CC(=O)NCc2cccs2)cc1 | 4.4% | 1% | -16% | 0% | -10% | -3% | 30% | 7%
COc1c(F)c(F)cc2c(=O)c(C(=O)O)cn(C3CC3)c12 | · | · | 17% | 1% | ? | -44% | 2% | -12%
COc1ccc(C[C@H]2CN3C(=NC[C@H]3C)N2CCNC(=O)c2ccc(C)c(Br)c2)cc1 | · | · | · | 0% | · | -5% | -25% | -4%
Cc1ccc(-n2c(SCc3ccc([N+](=O)[O-])cc3)nc3ccccc3c2=O)cc1 | 3.3% | ? | 0% | 0% | ? | 14% | -18% | 4%
CC(C)n1nc(C(=O)Nc2cccc(S(=O)(=O)NCc3ccco3)c2)c2ccccc2c1=O | · | · | · | -3% | · | -2% | 20% | 13%
O=C(C1CC(=O)N(c2ccc(F)cc2)C1)N1CCN(c2ccccc2)CC1 (stereo not given) | · | · | 1% | -10% | -15%[46.1 µM] | -10% | -5% | -5%
CN(C)S(=O)(=O)c1ccc(C(=O)Nc2nnc(Cc3ccccc3)s2)cc1 | 3.2% | -24% | 13% | 11% | 4% | -24% | 0% | 8%
O=C(CNC(=O)C12CC3CC(CC(C3)C1)C2)N/N=C\c1ccco1 | · | · | -3% | -5% | 5% | -1% | -10% | 8%
Oc1ccc2ccccc2c1-c1sc(Nc2ccccc2)n[n+]1-c1ccc(F)cc1 | · | · | · | 7% | · | ? | -7% | -19%
C[C@H](O)[C@@H](C(=O)N1CCN(C(=O)OC(C)(C)C)CC1)n1cc(CCCCNC(=O)OC(C)(C)C)nn1 | · | · | · | 0% | · | 4% | -26% | -15%
CCOc1ccc(C(=O)N2CCC3(CC2)NCCc2[nH]cnc23)cc1 | · | · | ? | 5% | -1%[46.1 µM] | ? | 0% | 5%
O=C(Nc1ccccc1C(=O)OCc1cc(=O)n2c3c(sc2n1)CCCC3)c1ccccc1 | 0.8% | 2% | -3%[46.1 µM] | · | · | · | -25% | ·
CC(=O)Nc1ccc(S(=O)(=O)NCC2CCCO2)cc1 (stereo not given) | · | · | ? | · | 0%[46.1 µM] | · | 15% | 15%
Nc1ccc(-c2nc3cc(N)ccc3o2)cc1 | · | · | · | -3% | · | -11% | 27% | -18%
CCOC(=O)c1c(-c2ccccc2)c2cc(OC)ccc2n1CCCN(C)C | · | · | · | -3% | · | -7% | -13% | 4%
O=C(c1ccc(NS(=O)(=O)c2cccs2)cc1)N1CCCCC1 | -0.8% | 7% | -2% | 14% | -2% | -3% | -3% | 8%
O=C(COC(=O)c1nsc(Cl)c1Cl)NC1CCCCC1 | · | · | 14% | -3% | -14%[46.1 µM] | 2% | -6% | -7%
C/C(=N\NC(=O)c1cc(Br)ccc1O)c1cccs1 | · | · | -15%[46.1 µM] | -4% | ? | · | -14% | -7%
N#Cc1ccc(CCc2ccccc2)[nH]c1=O | · | · | 4%[46.1 µM] | · | 11%[46.1 µM] | · | -12% | 3%
Cc1cccc(NC(=O)CN2C(=O)NC3(CCCC3)C2=O)n1 | · | · | 3% | -1% | 21%[46.1 µM] | · | -1% | 3%
CN(C)CCNC(=O)c1cc2sc3ccccc3c2s1 | · | · | ? | -3% | ? | · | 35%[activator] | 7%
Oc1c(Br)cc(C2N=C(c3ccccc3Cl)NO2)cc1Br (stereo not given) | -4.8% | -2% | 1% | -4% | ? | -3% | 0% | -9%
Cc1ccn2c(/C=N/OCc3cccc(F)c3)c(-c3ccc(Cl)cc3)nc2c1 | 2.7% | -10% | -13% | 2% | ? | 15% | ? | -2%
CCCCN(C)CCNC(=O)c1cc2cc3ccc(OC)cc3nc2o1 | · | · | · | 1% | · | 0% | -13% | ?
COc1cc2c(CCNC(C)=O)c[nH]c2cc1O | -5.1% | 5% | 3% | · | ? | 26% | -17% | -11%[18.4 µM]
COc1cc(C2Nn3c(nnc3-c3ccccc3OC)S2)ccc1O (stereo not given) | -9.6% | -8% | 6% | 14% | 13% | 3% | -6% | 23%
Cc1cccc(C)c1OCC(=O)Nc1ccc(S(=O)(=O)Nc2ccccn2)cc1 | -3.9% | 0% | 1% | -9% | ? | -6% | 8% | 0%
O=C(Nc1ccccc1N1CCCC1)c1cc(S(=O)(=O)N2CCOCC2)ccc1Cl | · | · | -34% | -3% | ? | · | -26% | 21%
CSc1ccccc1C(=O)Nc1nccs1 | 0.9% | -25% | 18% | -15% | -22% | -16% | 13% | -13%
COc1ccccc1NC(=O)COC(=O)CNC(=O)c1ccc(OC)c(OC)c1 | -2.9% | -3% | 1% | -1% | 1% | -4% | 1% | 14%
CC(C)c1nnc(NC(=O)C2CCN(c3cnccn3)CC2)s1 | -4.4% | 11% | 2% | -22% | 9% | -1% | 3% | -1%
CCN1CCCC1CNC(=O)Cn1cccc1C(=O)c1ccccc1C (stereo not given) | -8.6% | -4% | -9% | -2% | -9% | 11% | 3% | 5%
O=C1C(=Cc2ccco2)CCC1=Cc1ccco1 | · | · | 1% | · | ? | · | -51% | -13%
CC1(C)CC(=O)C(C=NCCc2ccc(S(N)(=O)=O)cc2)=C(O)C1 | -1.2% | -26% | 10% | 4% | 7% | -8% | 10% | 4%
CC1S/C(=C(\C#N)C(N)=O)N(c2ccc(F)cc2)C1=O (stereo not given) | -0.3% | -12% | -2% | ? | -3%[46.1 µM] | 2% | 25% | 0%
Cc1ccc(SC(=O)COc2ccc(C)c(C)c2)cc1 | -20% | 8% | 9% | 3% | 14% | -19% | ? | -24%
O=C(NCc1ccc2c(c1)OCO2)C(=O)NCC1OCCN1S(=O)(=O)c1ccc(F)cc1 (stereo not given) | · | · | 2% | -7% | ? | -5% | 2% | -5%
CCOc1ncccc1C(=O)N(C)CC(=O)Nc1ccccc1SC | -0.1% | -5% | 19% | 21% | -4% | 2% | 8% | 8%
CSc1ccc(/C=C(\C#N)C(=O)Nc2cccc(C)c2)cc1 | -3.7% | ? | 23% | 16% | 18% | 1% | 29% | 21%
CC(=O)c1cc2c(cc1NC(=O)CCc1ccccc1)OCO2 | -5.9% | -10% | 16% | 1% | 19%[46.1 µM] | -48% | 1% | -7%
Cc1ccccc1C(=O)Nc1ccc(NC(=O)c2cccs2)cc1 | -5.7% | 7% | -27%[46.1 µM] | · | · | · | -4% | ·
CCCNC(=O)c1ccc(N2CCC3(CC2)CC(c2ccccc2)=NO3)c(NC(=O)c2cccc(OC)c2)c1 | · | · | · | -10% | · | -32% | ? | -2%
O=C(Cn1c(=O)nc(-c2ccccc2)c2ccccc21)NCCCc1ccccc1 | -3.8% | -9% | -10%[46.1 µM] | · | -15%[46.1 µM] | · | -15% | ·
Cn1c(=O)[nH]c(=O)c2c1nc(CN1CCN(c3cccc(Cl)c3)CC1)n2CCN1CCOCC1 | 0.2% | ? | 2% | -2% | 6%&-1% | -15% | 0% | 9%
O=C1NC(=O)C(=Cc2ccc(N3CCN(C(=O)c4ccccc4)CC3)c([N+](=O)[O-])c2)C(=O)N1 | · | · | 1% | 2% | 22%[46.1 µM] | · | -17% | -3%
